# Assay outcomes deposited in PubChem by ICCB-Longwood Screening Facility, Harvard Medical School.
# LANA-nucl inh – LANA-nucleosome interaction inhibition | FITC-LANA1-23 / chicken nucleosome fluorescence polarization; active compounds read low | AID 720717 | hit rate 0.3% among 51,000 | z-score (no concentration beside the values);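 active = both repeat wells score below -2 in polarization z-score versus plate sample wells, excluding overly bright wells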;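 also: 100 nL library stock added to about 30 µL; numbers are from one replicate; some results filed as inactive read as strong as hits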
#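 Test system: purified chicken nucleosomes with FITC-labelled LANA N-terminal peptide (1-23); Input: 240 nM purified chicken nucleosomes (480 nM peptide binding sites), final; Medium: TEN-BT buffer, pH 7.5; Timing: 10–45 min, room temperature; Technique: fluorescence polarization, 480 nm excitation, 535 nm parallel and perpendicular emission; Replication: duplicates.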
# Ab BasE inh – blocks the Acinetobacter baumannii siderophore enzyme BasE. hit rate 0.1% among 84,000. inhibition, % (no concentration beside the values). purified BasE, fluorescence polarization binding displacement;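 active = both replicates above 25% with normal brightness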;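 also: 0% = negative plate control signal and 100% = positive plate control signal; stock transfer was 100 nL into about 30 µL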
# * marks the source's active call; other numbers are inactive results; . = no result given; & = joins results of further samples. These rows are one share of the data; count on the stated rates, not on these rows.
molecule	LANA-nucl inh	Ab BasE inh
Cc1cc(NC(=O)CN(C)C2CCCCC2)nc2c1c(=O)oc1ccccc12	-0.31	3.4
C=CCn1c(C)nnc1SC(C)C(=O)Nc1ccc(S(=O)(=O)NC(C)C)cc1 (stereo not given)	.	0.1
COC(=O)c1ccc(S(=O)(=O)NCCc2ccccc2OC)n1C	1.2	-3.0
CCCCNC(=O)Nc1nnc(Cc2ccccc2)s1	.	-1.0
Cc1ccc(NC(=O)Nc2ccc3c(c2)C(=O)NC3=O)cc1	.	6.8
CC(=O)Oc1cc2c(C(=O)NCc3ccccn3)c(C)oc2c2ccccc12	0.17	0.8
Cc1nc(C(=O)O)nn1-c1ccc(Cl)cc1	.	0.9
O=C(O)C1CCN(CCc2ccccn2)CC1	-0.053	0.6
Nc1cccc(NC(=O)CCC(=O)O)c1	.	3.8
O=C(Nc1c(C(=O)c2ccc(Br)cc2)oc2ccccc12)c1ccco1	-0.43	-1.3
S=C(c1ccccc1)N1CCN(Cc2ccccc2)CC1	.	-1.5
O=C(Cn1nc2n(c1=O)-c1ccccc1SC2)N/N=C/c1ccncc1	-0.16	4.2
Cc1ccc(NC(=O)CSc2nc3n[nH]c(C)c3c(=N)n2-c2ccccc2C)cc1	-1.1	0.5
O=S(=O)(c1cccc(F)c1)N1CCCN(c2ccc(C(F)(F)F)cn2)CC1	-0.92	.
O=C(OCn1nnc2ccccc2c1=O)C1=COCCO1	.	0.0
CC(Sc1ncn[nH]1)C(=O)Nc1ccc(Cl)cc1 (stereo not given)	-1.3	5.1
O=C(Cn1nc(-c2ccc3c(c2)OCCO3)ccc1=O)Nc1cccc2cccnc12	0.61	-0.8
CCc1ccc(N2CC(C(=O)NCc3ccc4c(c3)OCO4)CC2=O)cc1 (stereo not given)	0.11	2.1
CC(CO)N1CCS(=O)(=O)CC1 (stereo not given)	-0.73	.
CC(=O)NC(Nc1ccccc1)(C(F)(F)F)C(F)(F)F	.	1.6
COC(=O)c1cnc(N2CCCN(C(=O)c3cc(C(C)(C)C)nn3C)CC2)nc1C(F)(F)F	.	0.6
c1ccc(CCn2nnnc2C(c2cccnc2)N2CCc3ccccc32)cc1 (stereo not given)	1.2	0.2
O=C(CSc1ncnc2c1nnn2Cc1ccccc1F)NCc1ccco1	2.4	-0.6
O=C(OCc1cccc(C(F)(F)F)c1)c1ccc[nH]c1=O	.	1.1
Cc1c(C(=O)Nc2ccc(S(N)(=O)=O)cc2)sc2nc3n(c(=O)c12)CCCC3	0.2	1.2
CN=c1scc(-c2ccc(Cl)cc2)n1C	-1.8	0.1
CC(=O)Nc1ccccc1NC(=O)CN(C)S(=O)(=O)c1ccccc1	-0.69	5.1
S=c1[nH]ccn1Cc1ccccc1	.	3.5
O=C(OCCCCN1C(=O)c2ccccc2C1=O)c1n[nH]c2ccccc12	.	-2.4
CC1(c2ccccc2)NC(=O)N(NC(=O)CSc2nnc(-c3ccccc3)o2)C1=O (stereo not given)	.	1.9
Cc1onc(-c2c(Cl)cccc2Cl)c1NC(=O)N(C)C1CCCCC1	-0.53	1.9
CCC(C)NS(=O)(=O)c1ccccc1C(F)(F)F (stereo not given)	.	1.9
O=C1OC(C(=O)Nc2ccccc2)Cc2ccccc21 (stereo not given)	-1.2	0.9
NC(=O)N1CCC(C(=O)O)CC1	.	-0.7
O=C(O)c1cn2ccccc2n1	.	-1.9
COc1ccc(CCN(C)CCCC(C#N)(c2cc(OC)c(OC)c(OC)c2)C(C)C)cc1OC (stereo not given)	0.31	-1.3
S=C(Nc1ccc2[nH]ccc2c1)NC1CCCCC1	.	-2.3
COc1ccc(-n2cccc2C=C(C#N)C#N)cc1	2.3	-1.1
CCN(CC(=O)NCc1ccc(F)cc1)C(=O)C1CCCC1	.	1.4
Cc1[nH]c2ccc(C(=O)NN)cc2c1C	-0.38	0.4
O=C(O)CCN1C(=O)SC(Nc2ccccc2)C1=O (stereo not given)	.	0.4
O=C(Oc1ccc2c(=O)c(Cl)coc2c1)c1cccnc1	-0.17	0.0
CN1CCN(c2nc(N3CCCc4ccccc43)nc(N3CCCc4ccccc43)n2)CC1	0.0015	4.5
Nc1nc(-c2ccco2)nc(-c2ccco2)n1	-0.075	3.6
COC(=O)c1ccc(COC(=O)CNS(=O)(=O)c2ccccc2)cc1	-1.2	1.4
Cc1cc(C)nc(SCc2ccc(C(=O)N/N=C/c3ccco3)cc2)n1	.	-4.9
O=C(CN(C1=NC2CS(=O)(=O)CC2S1)c1ccccc1F)Nc1ccccc1 (stereo not given)	-0.14	2.4
Cc1cc(OCC(=O)Nc2ccccc2Cc2ccccc2)no1	.	2.1
CCOc1ccc(CN2CCC(n3nc(-c4ccoc4C)oc3=O)CC2)cc1	0.23	-1.1
CCOc1ccc(/C=N/NC=O)cc1	.	2.2
COc1ccc(C)cc1NC(=O)C(OC(=O)c1ccc(Br)o1)c1ccccc1 (stereo not given)	.	-0.6
Cn1c(CSCC(=O)Nc2ccccc2)nnc1SCc1ccc(Cl)cc1	.	-0.2
COc1ccc2oc(=O)c(C(=O)NC3CCCCC3C)cc2c1 (stereo not given)	0.55	2.5
CCN1CCCC(OC(=O)c2ccc3c(=O)n4c(nc3c2)CCCCC4)C1 (stereo not given)	.	-1.6
CCOC(=O)C1CCc2nc3ccccc3c(=O)n21 (stereo not given)	-0.3	-1.1
O=C1C=C/C(=N\OC(=O)c2ccccc2)C2=C1C1C=CC2C1 (stereo not given)	.	-0.4
O=C(CSc1nc2ccccc2s1)NNc1ncnc2c1cnn2Cc1ccccc1	-0.018	5.3
Cc1c(NC(C)C)c(=O)n(-c2ccccc2)n1C	2&-0.45	-1.7&0.2
CN(C)C(=S)SCC(=O)Nc1cccc(C(F)(F)F)c1	.	0.8
COC(=O)c1ccc(-n2nc(C)cc2C)cc1	0.32	-2.6

# Next structures:
# Each structure is followed by: LANA-nucl inh	Ab BasE inh
CC(=O)N(Cc1cccnc1)Cc1cc2cc3c(cc2[nH]c1=O)OCCO3
 : -2.1	0.3
COc1ccc(C2C3=C(CCCC3=O)N(CC(=O)O)C3=C2C(=O)CCC3)cc1
 : 1.5	0.4
Cc1[nH]c2ccccc2c1C(=O)CN1CCN(S(=O)(=O)c2ccccc2F)CC1
 : .	-0.1
CCN(CC)CCn1c2ccccc2c2nc(C)sc21
 : 0.11	2.1
COC(=O)C1=C(C)N(C2CCCC2)C(=O)C1(NC(C)=O)C(F)(F)F (stereo not given)
 : -0.98	3.0
O=C(O)CCC(=O)N1CCSc2ncccc21
 : -0.57	-0.1
Cc1cc(C)c2c(=O)cc(C(F)(F)F)oc2c1
 : .	-0.7
Cc1nc(N)[nH]c(=O)c1CCC(=O)O
 : .	0.1
CC(C(=O)O)n1ncc2ccccc2c1=O (stereo not given)
 : 0.2	0.2
CCCCc1ccc(NC(=O)CC)cc1
 : .	1.6
c1ccc2[nH]c(SN3CCCCC3)nc2c1
 : .	0.5
c1ccc(CN(Cn2nnc3ccccc32)Cn2nnc3ccccc32)cc1
 : -0.082	2.1
CC(Oc1ccccc1)c1nnc(N)s1 (stereo not given)
 : 0.32	-2.9
Cc1cccc(C2N(Cc3ccccc3)CCCN2Cc2ccccc2)n1
 : -0.9	-1.9
Cc1cc(=O)oc2cc(OCc3ccc(C(=O)O)cc3)ccc12
 : .	3.6
O=C(NCc1ccc2c(c1)OCO2)c1ccc(N2CCCCS2(=O)=O)cc1
 : 0.6	-0.7
COc1ccc(N2CCN(C(C)=C3C(=O)c4ccccc4C3=O)CC2)cc1
 : -0.6	6.8
CCOc1ccc(/C=C/C(=O)NC(C)C)cc1
 : -0.13	0.9
Cc1ccc2c(c1)c1c(n2CCC(=O)O)C(=O)CCC1
 : .	1.1
CN(Cc1ccccc1)Cc1nc2ccccc2n1C
 : -0.77	0.3
O=C(NN1CCCCC1)C12CC3CC(CC(O)(C3)C1)C2
 : .	-0.1
O=C1CCC(=O)N1CN(Cc1ccccc1)Cc1ccccc1
 : 0.3	2.8
Cc1ccc(-c2[nH]c(=O)n3ccncc23)s1
 : .	-2.4
COc1ccc(-c2cc(-c3ccccc3)c(C#N)c(SC3CCCCC3=O)n2)cc1 (stereo not given)
 : .	1.9
NNC(=O)[C@H]1[C@@H]2C[C@@H]3c4[nH]c5ccccc5c4CCN3C[C@H]2CC[C@H]1O
 : 2	-1.4
O=C1NC(=O)N(C2CCCCC2)C(=O)/C1=C/c1ccc(O)cc1
 : -0.68	3.5
Cc1cccc(CC(C(=O)Nc2ccccc2)c2nn[nH]n2)c1 (stereo not given)
 : 0.43	-0.7
CC(C)Oc1ccc(-c2cn3nc(C4CC4)sc3n2)cc1
 : -0.024	-2.9
Nc1nnc(CC(=O)N2CCCC2)o1
 : -0.79	0.8
CSc1sc(-c2ccnc(SCC(=O)c3ccc(Cl)cc3)n2)c2c1C(=O)CCC2
 : .	0.8
COC(=O)c1cc(C(=O)C2CCCCC2)c[nH]1
 : 0.8	.
C=CCc1cccc2ccc(=O)oc12
 : -0.11	-1.0
C=CC(=O)NCC1OCCc2ccccc21 (stereo not given)
 : 1.4	-4.4
CCOCc1c(C(=O)OCC(=O)c2ccccc2)oc2ccccc12
 : .	1.2
O=C(O)CNC(=O)c1ccccc1OC(F)F
 : .	2.5
Cc1cc(-c2ccccc2)nc2cc(C(=O)O)nn12
 : 1.4	-3.7
Cc1ccc(S(=O)(=O)N(CCC#N)CC2CCCO2)cc1 (stereo not given)
 : .	2.9
O=C(C1CCC(Cn2c(=S)[nH]c3ccccc3c2=O)CC1)N1CCCC1 (stereo not given)
 : 0.26	-0.7
O=C(CSc1nnc(-c2cccs2)o1)N1c2ccccc2CCc2ccccc21
 : 0.23	-1.9
Cc1ccc(S(=O)(=O)NC(=O)c2cc(C)n(CCN(C(C)C)C(C)C)c2C)cc1
 : .	2.2
O=C(Nc1c[nH]c(=O)[nH]c1=O)NC1CCCC1
 : 0.18	0.3
N#CC(C#N)=Cc1ccc(-c2ccc(S(N)(=O)=O)cc2)o1
 : -0.019	-6.7
COc1ccc(-n2c(C)cc(C(=O)COC(=O)c3ccc(C#N)cc3)c2C)cc1
 : .	-0.8
Cc1ccc(/C=N/N=C2\SCC(=O)N2CC2CC2)cc1
 : 0.25	-0.2
CC(C)N1CN(CCc2ccccc2)c2nc3ccccc3n2C1
 : -0.54	1.3
CN(C)C(=O)CCN1C(=O)C2C3C=CC(C3)C2C1=O (stereo not given)
 : -0.53	1.5
CCc1c(C)nc(N)nc1N1NC1=S
 : -0.1	0.8
Cc1ccccc1-c1coc2cc(O)ccc2c1=O
 : 1.2	-4.4
COc1ccc(C(Cl)=C(c2ccc(OC)cc2)c2ccc(OC)cc2)cc1
 : -0.46&-0.34&-0.1	-1.1&-1.2
CS(=O)(=O)N1CCC(C(=O)NCCc2ccccc2)CC1
 : .	-0.3
Cc1nn(CC(C)C)c2sc(C(=O)O)cc12
 : .	3.7
Cc1cccc(NC(=O)CCS(=O)(=O)c2ccc3c(c2)n(C)c(=O)c(=O)n3C)c1
 : -0.28	-2.1
CCCc1nc(C)cc(N2CCOCC2)n1
 : -0.21	0.2
CN1CCC(CN)CC1
 : -1.6	2.6
O=C(CC[n+]1ccc(/C=N/O)cc1)NCc1ccccc1
 : .	0.3
N#CC1=C(S)NC(=O)CC1c1ccco1 (stereo not given)
 : .	-0.2
Cc1csc(SCC(=O)c2cc3ccccc3oc2=O)n1
 : 1.8	-0.4
Cc1nc(Cc2ccc(OC(C)C)cc2)[nH]c(=O)c1CC(=O)O
 : -0.6	-1.0
NC(=O)NNc1cccc2cccnc12
 : 0.083	-2.5
CCn1nnc2cc(C(=O)N3CCC(C(=O)OC)CC3)ccc21
 : .	0.7

# As entered above.
# Result of CC(C)N1CN(CCc2ccccc2)c2nc3ccccc3n2C1 under LANA-nucl inh: -0.54
# Result of CCc1c(C)nc(N)nc1N1NC1=S under Ab BasE inh: 0.8

# In another format: entries from further up.
> O=C(O)CCC(=O)N1CCSc2ncccc21
  LANA-nucl inh = -0.57
  Ab BasE inh = -0.1
> Cc1cc(C)c2c(=O)cc(C(F)(F)F)oc2c1
  LANA-nucl inh = .
  Ab BasE inh = -0.7
> Cc1nc(N)[nH]c(=O)c1CCC(=O)O
  LANA-nucl inh = .
  Ab BasE inh = 0.1
> CC(C(=O)O)n1ncc2ccccc2c1=O (stereo not given)
  LANA-nucl inh = 0.2
  Ab BasE inh = 0.2

# Some of the entries so far, field by field.
> CS(=O)(=O)N1CCC(C(=O)NCCc2ccccc2)CC1
- LANA-nucl inh: .
- Ab BasE inh: -0.3

> CC(C)N1CN(CCc2ccccc2)c2nc3ccccc3n2C1
- LANA-nucl inh: -0.54
- Ab BasE inh: 1.3

# (list continues)
# Each structure is followed by: LANA-nucl inh	Ab BasE inh
CC(NC(=O)C1CC2CCCC(C1)C2=O)c1ccccc1 (stereo not given)
 : -0.43	0.1
O=C(Cn1nc2n(c1=O)-c1ccccc1SC2)c1cccs1
 : -0.3	0.1
N#C/C(=C\c1ccccc1)C(=O)NC1CC1
 : .	3.4
CC(C1CC2CCC1C2)n1c(SCC(=O)Nc2ccc3c(c2)OCO3)nnc1-c1ccco1 (stereo not given)
 : .	2.5
OC(CSc1nc(-c2ccccc2)n(-c2ccccc2)n1)C(F)(F)F (stereo not given)
 : .	1.6
O=C(O)CCCCN1C(=O)CSC1=S
 : .	0.4
CCN(CC)S(=O)(=O)c1ccc2[nH]cc(C(=O)NCCCN3CCN(c4ccc(OC)cc4)CC3)c(=O)c2c1
 : 0.26	-3.9
CN(CCc1ccccn1)c1ncnc2c1cnn2-c1ccc(Cl)cc1
 : -1.2	0.7
